ALR inh: inhibitors of human ALR sulfhydryl oxidase, primary screen, biochemical, H2O2 detection, HRP-luminol luminescence, single point; FAD-linked sulfhydryl oxidase ALR (Homo sapiens), P55789; purified ALR, DTT oxidation; inhibition, % (no concentration beside the values); hit rate 3.8% among 290,000;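 active means mean and each replicate at 75% or more; inconclusive means only one of the two met; inactive means neither met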;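 further: stock transfer was 7.5 nL into about 7.5 µL; 0% = neutral wells and 100% = wells with inactivated enzyme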
Target sequence (P55789 whole entry, looked up): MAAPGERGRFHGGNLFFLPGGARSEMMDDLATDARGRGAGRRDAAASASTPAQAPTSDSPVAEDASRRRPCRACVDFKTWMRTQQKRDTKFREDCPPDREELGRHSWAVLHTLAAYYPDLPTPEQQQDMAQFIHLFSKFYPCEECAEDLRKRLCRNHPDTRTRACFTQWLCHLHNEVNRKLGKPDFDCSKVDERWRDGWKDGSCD
FGF22 binding: binders of human FGF22 protein, primary screen, FGF22 synaptogenesis inhibitor project, biophysical, thermal shift, single point. recombinant FGF22 thermal shift, SYPRO orange fluorescence; percent of sucrose octasulfate shift, DMSO zero. calls only at 9.99 µM. hit rate 1.5% among 340,000;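 active means melting point raised past a set limit in the mean and every replicate; inconclusive means no clear call; three in four hits are not shown here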
Target sequence (Q9HCT0 whole entry, looked up): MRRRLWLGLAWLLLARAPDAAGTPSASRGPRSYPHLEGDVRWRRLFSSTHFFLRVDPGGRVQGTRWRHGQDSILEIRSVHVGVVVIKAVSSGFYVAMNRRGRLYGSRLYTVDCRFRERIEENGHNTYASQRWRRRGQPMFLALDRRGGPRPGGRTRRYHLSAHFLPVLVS
Beta apoptosis: inhibitors of cytokine-induced beta cell apoptosis, primary screen, luminescence; INS-1E cytokine-induced death, ATP luminescence, 48 h; percent of positive-control rescue, neutral wells zero; protection from apoptosis, % (no concentration beside the values); hit rate 0.8% among 300,000; AID 435005, 2010;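 active means all replicates at 75% or more, or half of them and the mean; inconclusive means half reach 75% but not the mean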;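 further: 0% = cytokine-treated negative control wells and 100% = positive control rescue; higher means more ATP so stronger rescue from cytokine killing; wells of about 40 µL received 100 nL stock; the first replicate is given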
Ecoli rRNA inh: reduced GFP signal of wild-type E. coli, primary screen, bacterial rRNA inhibitor project, GFP/RFP fluorescence, OD600, single point. E. coli WT GFP vs humanized-ribosome RFP mutants, 24 h; active compounds read low; DMSO median 0, no signal -100. AID 720706, 2013. GFP signal change (wild-type ribosome), % (no concentration beside the values). hit rate 1.6% among 350,000;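 active means significant combined selectivity score with lowered wild-type GFP, culture density cut under 30%, mutant RFP and density less affected; inactive means any of these conditions unmet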; further: one replicate is shown; some compounds called inactive have numbers as strong as hits
AF4-AF9 inh: inhibitors of AF4 peptide binding to AF9, primary screen, biochemical, AlphaScreen, biotin-AF4 peptide, FLAG-AF9, single point | inhibition, % at 10 µM | Protein AF-9 (Homo sapiens), P42568 | hit rate 0.47% among 350,000;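 active means every replicate reaching a set inhibition limit, whatever the replicate mean, cut at about 25% in these data; inconclusive means mean inhibition reaches that limit but some replicates miss it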;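 further: 0% = plate neutral control median and 100% = total signal loss; the record names both 10 and 1 µM as test concentration; the first replicate is given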
Target sequence (P42568 whole entry, looked up): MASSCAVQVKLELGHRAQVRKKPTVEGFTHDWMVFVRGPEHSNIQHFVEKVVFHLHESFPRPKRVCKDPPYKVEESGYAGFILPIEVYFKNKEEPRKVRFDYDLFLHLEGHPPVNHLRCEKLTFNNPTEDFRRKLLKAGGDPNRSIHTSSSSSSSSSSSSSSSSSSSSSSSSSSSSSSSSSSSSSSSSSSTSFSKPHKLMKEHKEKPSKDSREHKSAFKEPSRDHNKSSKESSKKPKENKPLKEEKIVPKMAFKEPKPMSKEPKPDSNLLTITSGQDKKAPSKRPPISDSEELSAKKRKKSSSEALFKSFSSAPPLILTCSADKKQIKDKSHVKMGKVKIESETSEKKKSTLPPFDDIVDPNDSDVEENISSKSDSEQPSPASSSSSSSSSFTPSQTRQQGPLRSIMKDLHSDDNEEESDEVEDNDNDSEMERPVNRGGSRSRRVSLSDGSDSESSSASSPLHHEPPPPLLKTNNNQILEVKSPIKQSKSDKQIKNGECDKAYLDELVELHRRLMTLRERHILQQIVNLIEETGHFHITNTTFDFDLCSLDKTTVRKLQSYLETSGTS
RanGTP-Impb inh: inhibitors of RanGTP-importin-beta interaction, primary screen, biochemical, FRET, CFP-Ran, YFP-importin-beta, homogeneous. Ran GTPase (GTP-bound) - importin-beta complex. cell-free CFP-Ran/YFP-importin-beta FRET ratio. inhibition, % (no concentration beside the values). hit rate 1.1% among 300,000. AID 2216, 2009;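 active means most replicates above 15%; inconclusive means exactly half above 15%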;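 further: 0% = DMSO wells and 100% = Ran loaded with GDP instead of GTP; wells of about 40 µL received 100 nL stock; the first replicate is given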
Calb FLC: C. albicans growth inhibition with fluconazole, primary screen, CaCi-2 strain, Alamar Blue fluorescence; C. albicans CaCi-2 (fluconazole-resistant clinical isolate) + fluconazole, 48 h; growth inhibition, % (no concentration beside the values); hit rate 0.57% among 300,000; AID 1979, 2009;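 active means most replicates above 75%; inconclusive means exactly half above 75%; inactive means most below 75%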;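 further: all wells also contain fluconazole at 8 µg/ml as a sub-toxic cotreatment; 0% = median of DMSO wells and 100% = median of geldanamycin control wells; wells of about 8 µL received 7.5 nL stock; the first replicate is given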
T cruzi inh: inhibitors of intracellular T. cruzi growth, primary screen, luminescence, NIH3T3 host cells; T. cruzi beta-gal in NIH3T3, 90 h; inhibition, % (no concentration beside the values); hit rate 1.4% among 300,000; AID 1885, 2009;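 active means mean inhibition across valid replicates above about 55%, limit read from the data; inconclusive means mean below that limit but half or more replicates reach it; inactive means mean below it, under half of replicates reach it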;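 further: signal also drops with host cell toxicity which is not excluded here; 0% = plate median of DMSO wells and 100% = zero luminescence signal; higher percent means less beta-gal luminescence so fewer parasites; stock transfer was 50 nL into about 50 µL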
Ecoli rRNA inh OD600: second read-out of Ecoli rRNA inh, no call of its own (marks repeat the call); OD600 change, %; measured here: OD600 growth;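 optical density of the mix in the first replicate; 0 = DMSO median and -100 = no signal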
Ecoli rRNA inh RFP: further read-out of Ecoli rRNA inh, marked with its call; RFP signal change, %; measured here: RFP humanized mutant strains;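 first replicate; 0 = DMSO median and -100 = no signal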
* hit, by the source's call; i = inactive; ? = inconclusive; / = not tested or not shown.

SMILES	ALR inh	FGF22 binding	Beta apoptosis	Ecoli rRNA inh	Ecoli rRNA inh OD600	Ecoli rRNA inh RFP	AF4-AF9 inh	RanGTP-Impb inh	Calb FLC	T cruzi inh
O=[N+]([O-])c1ccc2nc(-[n+]3c(-c4ccccc4)cc(-c4ccccc4)cc3-c3ccccc3)[nH]c2c1	-4	/	45	/	/	/	/	3.8	69	58*
Cc1cccc(N(C(=O)c2ccco2)C(C(=O)NC2CCCC2)c2ccco2)c1C (stereo not given)	/	i	/	4	-9	6.3	2.3	2.1	8	-6
Brc1ccc(/C=N/Nc2ncnc3c2cnn3Cc2ccccc2)cc1	8	/	26	/	/	/	/	?	-2	15
CN(C)CCSc1nnc(-c2ccccc2)o1	-16	/	-3	/	/	/	/	-1.6	-9	12
Cc1ccsc1/C=N/NC(=O)c1nnn(-c2nonc2N)c1-c1ccc2c(c1)OCO2	-1	i	7	-5	-7	1.8	-1.1	8.7	8	2
CN1CCN(c2ccc(S(=O)(=O)N3CCCCC3)cc2NC(=O)Cc2ccc(Cl)cc2)CC1	/	/	4	/	/	/	/	40*	-2	23
Cc1cc(=O)oc2cc(OCC(=O)NC3CCCCC3)ccc12	-1	/	-12	-5	3	-0.4	-0.4	4.3	10	-5
Cc1cccnc1Nc1nc(-c2ccc(O)cc2O)cs1	77*	/	-8	/	/	/	/	?	-9	10
Cc1ccc(C(=O)c2sc3nsc(C)c3c2N)cc1	-7	/	-7	/	/	/	/	12	?	-7
COc1cccc(NC(=S)NC(=O)Cc2ccccc2)c1	-5	i	-4	-18	-10	1.3	-0.4	-0.6	2	-19
COc1ccc(-c2nc(C#N)c(N3CCN(C(=O)c4ccco4)CC3)o2)cc1OC	-1	i	/	-1	4	-1.9	-6.7	0.1	0	2
O=C(CSc1ccccn1)Nc1ccc2c(c1)OCCO2	-14	i	0	-3	-14	-0.4	/	-1.8	4	0
O=C(CSc1ccc(Cl)cc1)NC(=O)NCc1ccco1	-28	i	-17	-11	-6	2.1	0.5	-2.4	-18	24
O=C(O)/C=C/c1cnc[nH]1	-13	i	-1	4	5	1.0	-6.4	-1.6	3	-19
O=S(=O)(CCSc1ccc(C(F)(F)F)cn1)c1ccccc1	-4	i	1	8	-4	3.0	0.6	-4.6	5	0
CCOc1ccc(NC(=O)/C(C#N)=C/c2cn(CC(=O)O)c3ccccc23)cc1	-9	i	/	-26*	-19*	-3.5*	-2.7	3.3	-6	1
COc1ccccc1N(C(=O)CNC(=O)c1ccco1)C(C(=O)NC1CCCC1)c1ccco1 (stereo not given)	/	i	4	5	7	2.8	-0.3	5.2	2	-9
Cc1ccc(S(=O)(=O)O/N=C2/CCCc3occc32)cc1	/	/	-13	/	/	/	/	?	-2	-4
CCn1ncc(Br)c1C(=O)Nc1cc(C(=O)OC)ccc1C(=O)OC	0	/	0	/	/	/	/	1.8	-4	-2
COC(=O)c1sc2nc(SCC(=O)N(C)c3ccccc3)n(N)c(=O)c2c1C	3	i	15	-3	-1	-2.5	-4.1	5.5	1	4
Cc1cc(NC(=O)CSCC(=O)Nc2cccc(S(=O)(=O)N3CCCCCC3)c2)no1	-3	i	1	-8	-2	5.0	1.6	-0.9	1	6
O=C(CSc1nnc(-c2ccncc2)n1Cc1ccco1)Nc1nccs1	-11	/	2	/	/	/	/	2.1	-8	-5
Cc1ccccc1OCC(=O)N/N=C/c1sc(=O)n(Cc2cccc(C(=O)O)c2)c1Cl	10	i	-4	0	-10	8.2	3.4	1.9	-1	-12
CN(C)c1ccc(-c2c(-c3ccc4c(c3)OCO4)noc2-c2ccsc2)cn1	/	/	4	/	/	/	/	-1.8	-1	11
CSc1ccccc1NC(=O)c1cnccn1	-1	/	-1	/	/	/	/	-2.3	8	7
Cc1ccc(C(=O)NCCSc2c(C)[nH]c3ccccc23)cc1[N+](=O)[O-]	71	i	-6	-6	-8	1.3	5.7	-5.5	0	1
Cc1ccc(C)c(C2=CSC3=NCCN23)c1	19	/	4	/	/	/	/	2.4	2	-22
COc1ccc(NC(=O)Cc2nnc(SCC(=O)c3ccc(F)cc3)n2C)cc1	/	i	-6	10	14	-0.6	3.0	0.5	4	13
CCc1nnc(NC(=O)OCc2ccccc2)s1	-4	/	-4	/	/	/	/	5.8	-12	-4
O=C(NC1CCCC1)C(c1cc2c(cc1[N+](=O)[O-])OCO2)N1CCCC1 (stereo not given)	4	i	-7	-1	-8	-1.7	0.3	-2.6	13	-6
CN(/N=C/c1ccccc1)C(=S)c1ccccc1	12	i	-6	-29*	-13*	-2.9*	17	?	-2	17
COc1ccc(C)cc1NC(=O)CN(Cc1nnc(-c2ccc(Cl)cc2)o1)C1CCCC1	-6	/	2	/	/	/	/	4.0	14	29
CC1(C)NC(=O)N(CCOCCOc2ccccc2)C1=O	-1	/	-1	1	-4	-6.8	/	4.6	-3	-11
Cc1ccc(C)c(SCC(=O)NNC(=O)c2csc(N3CCOCC3)n2)c1	-1	i	2	-10	-12	2.9	0.0	-2.0	11	-2
Cc1cccc(-n2nnnc2SCC(=O)c2cc(C)n(Cc3ccco3)c2C)c1	-11	/	0	/	/	/	/	4.6	2	19
CCCN(CC(=O)Nc1ccccc1C)C(=O)C1CCN(S(=O)(=O)c2ccccc2C(F)(F)F)CC1	-3	i	-4	4	10	0.1	-16	-2.8	-1	5
Cc1ccc(/C=N/n2c(-c3cccc(Cl)c3)n[nH]c2=S)o1	38	i	-6	-15	-6	1.2	0.0	2.0	-21	-14
CCCC(=O)c1ccc(N2CCCCC2)c(F)c1	3	/	3	9	1	-2.4	-1.7	-0.6	-11	8
COc1ccc(-c2ccccc2)cc1NCc1ccccc1C	/	i	2	/	/	/	7.3	-5.5	-5	4
O=C(Cn1c(=O)oc2cc(S(=O)(=O)N3CCCC3)ccc21)Nc1ccccc1Br	-7	/	-10	/	/	/	/	-1.6	-12	-5
Cc1c(O)c(=O)ccn1Cc1ccccc1	62	i	-7	0	0	-0.1	-1.6	-1.6	-24	-25
O=C(NCC(=O)N(Cc1ccc(F)cc1)C(C(=O)NCC1CCCO1)c1ccccc1)c1ccco1 (stereo not given)	-11	i	/	5	7	2.3	2.4	-2.3	-5	11
O=C(Cn1nc(-c2cccc(Cl)c2)ccc1=O)NCC1COCCO1 (stereo not given)	/	i	-6	8	6	3.5	-4.2	-0.4	-2	1
Cc1cc(N2CCOCC2)ccc1/C=C1\NC(=O)N(Cc2ccccc2)C1=O	8	i	-3	4	2	1.7	3.1	2.7	15	10
O=C(COC(=O)c1cc(=O)[nH]c2ccccc12)Nc1ccc(Cl)cn1	-5	i	/	16	18	-2.0	-1.3	-2.0	-1	1
CCOC(=O)c1c(NC(=O)CN2CCOCC2)sc2c1CCCC2	-2	/	-4	/	/	/	/	6.1	17	18
CCN(CC)CCCNC(=O)c1ccccc1C	-3	/	3	-2	9	-0.5	/	0.4	-3	-8
O=C(COC(=O)CNC(=O)c1ccc(Cl)cc1Cl)NNC(=O)c1ccccc1	-2	i	-6	22	15	0.2	-2.4	/	/	/
C/C(=C\c1ccccc1)C1NC(=O)c2c(sc3c2CCCC3)N1 (stereo not given)	-9	i	-2	2	-1	0.3	4.4	-1.9	?	-19
CCOC(=O)c1sc(NC(=O)c2ccco2)nc1C	40	/	-1	/	/	/	/	2.8	2	/
C=CCn1nnnc1SCC(=O)Nc1cccc(C(F)(F)F)c1	-2	i	0	3	10	-0.3	-7.5	-1.8	-7	-6
CCOC(=O)Cc1csc(NC(=O)CSc2nnc(-c3ccncc3)o2)n1	25	i	4	15	11	-0.4	-1.4	-2.1	106*	6
COc1ccc(COCC(O)CN(Cc2ccco2)Cc2ccccc2O)cc1 (stereo not given)	-4	/	3	/	/	/	/	2.3	1	9
Cc1cc2c(OCC(O)CN3CCCCC3)cccc2[nH]1 (stereo not given)	46	i	-5	5	9	4.5	12	-5.9	-18	3
COc1ccc(C(=O)N/C(=C/c2cccnc2)C(=O)N2CCOCC2)cc1OC	-4	i	-3	21	-2	5.6	/	-3.4	17	-3
COc1ccc(-c2c(C)nn3c(C)cc(C)nc23)cc1	0	i	-4	-3	-10	-0.4	-1.2	-1.4	-2	-7
O=C(Oc1ccc2cccc(OC(=O)N3CCOCC3)c2c1)N1CCOCC1	-14	/	-3	/	/	/	/	0.8	1	-1
Cc1cc(C)n(-c2ccc(NC(=O)C3CCCCN3Cc3cccc4c3OCO4)cc2)n1 (stereo not given)	/	i	/	-23	-24	0.8	0.5	7.3	-6	24
O=C(NCCN1CCOCC1)c1ccc(N2CCCC2)c([N+](=O)[O-])c1	0	i	-1	4	2	7.5	-7.7	?	-3	11
CN(C(=O)COc1ccc(Cl)cc1)C1(C)CCS(=O)(=O)C1 (stereo not given)	1	/	-5	8	5	-0.5	-0.5	9.3	25	-5
Cc1nn(CC(=O)NCc2cccs2)c(=O)c2nn(-c3ccccc3)c(C)c12	-2	i	5	14	16	-0.5	0.9	1.3	3	-10

These rows are one share of the data; rates above refer to the full screens.
